StopGo reporter: FMDV 2A StopGo reporter, luciferase signal | human cells with a luciferase reporter of 2A StopGo recoding; control for the full effect not named in the record | actives 1.2% (n = 410,000) | Potency, µM (titrated, usually from 57.9 µM), inactives show at the top dose signal change, negative = less light; active = well fitted falling curve with a large enough effect; inconclusive = small, poorly fitted or top-dose-only effect; inactive = no such curve, though single readings can be large or run the other way; tested in HEK293T cells; also: % is scaled to controls: 0 for no effect and ±100 for the full control effect; nearly all actives have a fitted effect of over 45% in size; luciferase light after 4 h
Lassa entry inh: blocks Lassa virus binding to or entry into cells | Potency, µM (series often up to 37.9 µM), for the others: at the highest dose activity change, negative = inhibition, most hits filed as inhibitors | actives 1.2% (n = 300,000) | Lassa virus pseudotype entry inhibition, cell reporter; control for the full effect not named in the record | AID 540256; active means well fitted inhibition curve with a large enough effect; inconclusive means small, poorly fitted or top-dose-only effect, or effect the other way; inactive means flat fitted curve, though single readings scatter; tested in HEK293 cells; also: % is scaled to controls: 0 for no effect and ±100 for the full control effect; nearly all actives have a fitted effect of over 50% in size; luciferase read-out
Cruzain inh Det: blocks cruzain activity in presence of Triton detergent; AID 1478; purified cruzain, Z-FR-AMC fluorescence, 0.01% Triton; P25779; Potency, µM, without a hit: max response, negative = inhibition, usual class: inhibitors; actives 0.43% (n = 200,000);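 also: plate controls were neutral wells for no effect and buffer without enzyme for full effect; nearly all actives have a fitted effect of over 40% in size; top concentration of the series not given in the record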
Target sequence (P25779 123-467 limits assumed): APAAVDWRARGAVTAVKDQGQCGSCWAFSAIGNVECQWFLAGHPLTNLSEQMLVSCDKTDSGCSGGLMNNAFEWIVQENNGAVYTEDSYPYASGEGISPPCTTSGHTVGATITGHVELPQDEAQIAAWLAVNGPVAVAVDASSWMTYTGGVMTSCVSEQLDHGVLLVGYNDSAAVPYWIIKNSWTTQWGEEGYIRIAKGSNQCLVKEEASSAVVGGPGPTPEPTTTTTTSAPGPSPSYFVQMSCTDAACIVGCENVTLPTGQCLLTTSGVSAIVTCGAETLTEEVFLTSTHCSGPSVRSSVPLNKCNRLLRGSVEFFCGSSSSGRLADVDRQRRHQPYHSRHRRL
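In this qHTS format, compounds are incubated with 1.5 nM cruzain for 15 min at room temperature before 2 uM Z-FR-AMC is added. Release of AMC is followed at 360/450 nm, and progress is taken as the 60 s fluorescence difference.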
SARS PLpro yeast: blocks SARS-CoV papain-like protease in a yeast assay. S. cerevisiae expressing SARS-CoV PLpro, growth rescue; control for the full effect not named in the record. Potency, µM (highest dose often 32.9 µM), for the others: at the highest dose activity, positive = growth rescue. actives 0.19% (n = 330,000). AID 485353; active means well fitted rising curve with a large enough effect; inconclusive means small, poorly fitted or top-dose-only effect; inactive means no such curve, though single readings can be large or run the other way; also: 0% is about no effect; nearly all actives have a fitted effect of over 55% in size; growth read by luminescence after 48 h
RE007 growth inh: less growth of the S. pombe RE007 Vpr strain. S. pombe RE007 Vpr strain, BacTiter-Glo ATP luminescence, 24 h; control for the full effect not named in the record. Potency, µM (series often up to 92.2 µM), for inactives: at the top dose activity change, negative = less growth. actives 0.21% (n = 360,000); active = well fitted falling curve with a large enough effect; inconclusive = small, poorly fitted or top-dose-only effect; inactive = no such curve, though single readings can be large or run the other way;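 also: % is scaled to controls: 0 for no effect and ±100 for the full control effect; nearly all actives have a fitted effect of over 50% in size; the assay follows cell death caused by Vpr and the record does not say whether a fall means rescue or toxicity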
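Fission yeast strain RE007, carrying one chromosomally integrated HIV-1 vpr copy, was seeded at OD 0.01 in PMG+AL medium with 23 nL pinned compound. After 24 h at 30 °C and 99% humidity, viability was read by BacTiter-Glo luminescence.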
NS1 inh: blocks influenza NS1 protein function; S. cerevisiae slowed by influenza A NS1, growth recovery by OD600; Potency, µM (top dose mostly 46.1 µM), for inactives: at the highest dose activity, positive = more growth; actives 0.4% (n = 270,000); active means well fitted rising curve with a large enough effect; inconclusive means small, poorly fitted or top-dose-only effect; inactive means no such curve, though single readings can be large or run the other way; also: nearly all actives have a fitted effect of over 50% in size
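A cell-based growth assay was used: compounds that relieve NS1-induced slow growth of budding yeast raise OD600. Assay medium was yeast nitrogen base with ammonium sulphate and -URA supplement, pH 6.0, with 2% galactose.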
Cruzain noTriton: blocks cruzain activity in detergent-free assay. purified cruzain, Z-FR-AMC fluorescence, no detergent. actives 2.3% (n = 200,000). Potency, µM, inactives show max response, negative = inhibition, usual class: inhibitors;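 also: plate controls were enzyme without inhibitor for no effect and buffer without enzyme for full effect; nearly all actives have a fitted effect of over 40% in size; top concentration of the series not given in the record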
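Purified cruzain at 1.5 nM, pre-incubated 15 min with compound at room temperature in 100 mM sodium acetate pH 5.5, 5 mM DTT, 0.00005% Triton X-100. Reaction started with 2 uM Z-FR-AMC; AMC fluorescence increase over 60 s gives rate.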
MARV entry inh: inhibitors of Marburg virus binding or cell entry; Marburg virus pseudotyped entry inhibition, cell reporter; control for the full effect not named in the record; about a third of the inactives were read at about 46 µM; Potency, µM (highest dose often 37.8 µM), for the others: at the top dose activity change, negative = inhibition, hits mostly inhibitors; actives 1.8% (n = 300,000); AID 540276; active = well fitted inhibition curve with a large enough effect; inconclusive = small, poorly fitted or top-dose-only effect, or effect the other way; inactive = flat fitted curve, though single readings scatter; tested in HEK293 cells; about a fifth of its hits are not listed in these tables; also: % is scaled to controls: 0 for no effect and ±100 for the full control effect; luciferase read-out
The depositor's hits bear a star; ? = inconclusive; / = not tested or not shown; & = joins results of further samples; [ ] = another dose, or the depositor's remark. Unless noted, calls follow the shape of the dose curve; as a rule, active = well fitted curve in the direction sought with a large enough effect; inconclusive = small, poorly fitted or top-dose-only effect, or another doubt; inactive = no such curve, though single readings can be large; an effect the other way counts as inactive or inconclusive. Potency is read from the fitted curve at half-maximal effect.

SMILES	StopGo reporter	Lassa entry inh	Cruzain inh Det	SARS PLpro yeast	RE007 growth inh	NS1 inh	Cruzain noTriton	MARV entry inh
O=C(Cc1cccs1)N1CCCC(c2nc3c(nnn3Cc3ccc(F)cc3)c(=O)[nH]2)C1 (configuration not stated)	-26%	?	-1.5%	0%	-7%	-1%	1%	-8%
Cc1cc(C)c2c(=O)cc(C(=O)Nc3sc4c(c3C(=O)NCc3cccnc3)CCCC4)oc2c1	-7%	16%[46.1 µM]	-1.6%	/	/	/	-3%	9%[46.1 µM]
CCN1C(=O)CC(N2CCN(C(c3ccccc3)c3ccccc3)CC2)C1=O (configuration not stated)	7%	-18%	2.8%	2%	-18%	-5%	18%	-19%[46.1 µM]
COc1ccc(OC)c(C(c2nnnn2C2CCCC2)N2CCN(c3ccccc3)CC2)c1 (configuration not stated)	-5%	?	-3.6%	-18%	-2%	-33%	-4%	10µM*
O=C1OC(c2ccccc2)(c2cc(Br)ccc2O)c2ccccc21 (configuration not stated)	16%	?	/	/	-5%	/	/	?
Cc1ccc2[nH]c(=O)c(CN(Cc3cccnc3)Cc3nnnn3CCN3CCOCC3)cc2c1	4%	13%	0.4%	-4%	-17%	-4%	-1%	-7%
Cc1ccc(-c2ccc(=O)n(CC(=O)N3CCN(c4cc(Cl)ccc4C)CC3)n2)cc1	-6%	-12%	-6.3%	3%	2%	12%	?	-3%
COc1ccccc1N1Cc2ccccc2C1	?	4%	-3.7%	-3%	-16%	9%	16µM*	-14%
Cc1ccc(CSc2[nH]c(=O)ncc2C)cc1	0%	/	/	5%	5%	-4%	/	/
O=C(NCC1CCCO1)c1c[nH]c2ccc(S(=O)(=O)Nc3ccc(F)cc3F)cc2c1=O (configuration not stated)	83%[activator]	2%[46.1 µM]	-8.9%	/	/	/	0%	-17%[46.1 µM]
CCC(=O)Nc1ccc(N/C(N)=N/c2nc(C)cc(C)n2)cc1	-11%	/	/	1%	-18%	6%	/	/
CC(C)C(NS(=O)(=O)/C=C/c1ccccc1)C(=O)NCc1ccc(F)cc1 (configuration not stated)	11%	3%[46.1 µM]	/	1%	0%	7%	/	?
Cc1nc(N)sc1-c1csc(NCc2ccccc2)n1	10%	2%	-15%	6%	4%	?	32µM*	14%
O=C(COC(=O)c1ccccc1O)Nc1ccc2ccccc2c1	14%	?	/	2%	?	/	/	?
CCCCOC(=O)Cn1c(=O)c2c(nc(Br)n2Cc2ccccc2)n(C)c1=O	?	-3%	-5.5%	-11%	4%	-15%	8%	-25%&-25%
COC(=O)c1ccc(CSc2nc3ccccc3c(=O)n2-c2cccc(OC)c2)o1	/	?	-1.2%	5%	-10%	-1%	25µM*	-27%
N#CC1=C(N)Oc2c(sc3ccccc23)C1c1ccco1 (configuration not stated)	?	?	-7.6%	7%	-10%	-1%	?	?
Cc1nnsc1C(=O)NNc1ccc(Cl)cc1	7%	/	/	-1%	10%	-2%	/	/
CC1CSc2n(-c3cccc(C(F)(F)F)c3)cc(-c3ccccc3)[n+]21 (configuration not stated)	-10%	-14%	/	0%	?	-5%	/	?
CC(C(=O)O)n1c2ccccc2c2cn[nH]c(=O)c21 (configuration not stated)	6%	/	/	-1%	-4%	4%	/	/

The final 6 records of the part before lead into the next:
SMILES	StopGo reporter	Lassa entry inh	Cruzain inh Det	SARS PLpro yeast	RE007 growth inh	NS1 inh	Cruzain noTriton	MARV entry inh
CCCCOC(=O)Cn1c(=O)c2c(nc(Br)n2Cc2ccccc2)n(C)c1=O	?	-3%	-5.5%	-11%	4%	-15%	8%	-25%&-25%
COC(=O)c1ccc(CSc2nc3ccccc3c(=O)n2-c2cccc(OC)c2)o1	/	?	-1.2%	5%	-10%	-1%	25µM*	-27%
N#CC1=C(N)Oc2c(sc3ccccc23)C1c1ccco1 (configuration not stated)	?	?	-7.6%	7%	-10%	-1%	?	?
Cc1nnsc1C(=O)NNc1ccc(Cl)cc1	7%	/	/	-1%	10%	-2%	/	/
CC1CSc2n(-c3cccc(C(F)(F)F)c3)cc(-c3ccccc3)[n+]21 (configuration not stated)	-10%	-14%	/	0%	?	-5%	/	?
CC(C(=O)O)n1c2ccccc2c2cn[nH]c(=O)c21 (configuration not stated)	6%	/	/	-1%	-4%	4%	/	/
COc1cc(OC)cc(C(=O)NNC(=O)c2ccccn2)c1	-7%	?	3.9%	22%	-2%	3%	-12%	?
COCCNC(=S)N/N=C/c1ccc(OCc2ccc(C(=O)OC)cc2)cc1	-8%	4%[46.1 µM]	-1.9%	4%	4%	6%	-25%	12%[46.1 µM]
CCOc1ccccc1NC(=O)Nc1ccon1	-17%	?	/	0%	2%	-8%	/	13%[46.1 µM]
COc1ccc(-c2cc3c(=O)n(CC(=O)NCc4ccccc4F)ncn3n2)cc1	-2%	/	/	3%	-6%	-2%	/	/
CCN(CC)C(=O)c1c([N+](=O)[O-])c(C(C)(C)C)nn1C	3%	?	-0.9%	14%	-13%	-6%	9%	?
Cc1ccccc1-c1nc2cc(NC(=O)Cc3ccc(Cl)cc3)ccc2o1	21%	0%[46.1 µM]	-1.7%	/	/	/	-9%	/
Cc1cc(C)c(C)c(S(=O)(=O)NCC(=O)NCc2ccco2)c1C	42%[activator]	4%	-0.7%	2%	4%	5%	5%	1%
NS(=O)(=O)c1ccc(CCNC(=O)CSc2nc3ccsc3c(=O)n2CCCCCC(=O)O)cc1	-6%	29%[46.1 µM]	/	0%	11%	/	/	20%[46.1 µM]
O=C(NCC1CCCN(C(=O)c2cscn2)C1)c1ccc(-c2ccccc2)cc1 (configuration not stated)	-16%	?	/	0%	12%	-1%	/	?
C=CCOc1ccc(/C=C/C(=O)OCC(=O)Nc2c(C)n(C)n(-c3ccccc3)c2=O)cc1	-14%	3%	/	2%	-7%	/	/	8%[46.1 µM]
S=C(N/N=C/c1cccs1)NC1CC2CCC1C2 (configuration not stated)	22%	-10%	/	-4%	?	-44%	/	?
Cc1cccc(COc2ccc(S(=O)(=O)N3CCOCC3)cc2[N+](=O)[O-])c1	-11%	-12%	/	-9%	-5%	/	/	19%
Cc1ccc(S(=O)(=O)N2CCCC2C(=O)Nc2nccs2)cc1 (configuration not stated)	-24%	4%	0.7%	-6%	4%	-11%	-9%	0%&0%
O=C(c1cccc(C(=O)N2CCc3ccccc32)n1)N1CCc2ccccc21	-20%	7%	-3.0%	0%	13%	-3%	-5%	-13%
O=C(CCCn1c(SCc2cccc([N+](=O)[O-])c2)nc2ccccc2c1=O)NCC1CCCO1 (configuration not stated)	-2%	-24%[46.1 µM]	/	-8%	-2%	/	/	?
Cc1ccc(C)c(CSc2nnc(C)n3c2cc2sccc23)c1	3%	-22%[46.1 µM]	-2.5%	/	/	/	4%	/
CCN(CC(=O)NCc1ccc(Cl)cc1)C(=O)/C=C/c1ccccc1	-5%	11%	/	2%	7%	8%	/	0%[46.1 µM]
O=C(CSCC(=O)Nc1ccccc1)N/N=C/c1c(O)ccc2ccccc12	30%[activator]	26µM*	-6.6%	29%	3%	-4%	-8%	?
O=C(CCCc1c[nH]c2ccccc12)N1CCN(c2ccc(N3CCOCC3)nn2)CC1	-21%	/	0.5%	1%	-4%	-42%	8%	/
O=C(COC(=O)COc1ccc(Br)cc1)NCc1ccc2c(c1)OCO2	6%	-1%[46.1 µM]	/	8%	2%	/	/	6%[46.1 µM]
CCOC(=O)c1c(=O)n(O)c2ccc(C)cc2[n+]1[O-]	2%	0%	-1.6%	-10%	-7%	-2%	-10%	8%
O=C(O)COc1ccc2nsnc2c1Cl	-9%	9%	-4.9%	2%	19%	8%	-4%	2%
CCOc1ccc(S(=O)(=O)NC(=O)c2ccccc2)cc1	-20%	/	/	19%	4%	4%	/	/
Cc1csc(NC(=O)CCC(=O)N(CC(=O)NC2CCCC2)Cc2ccco2)n1	0%	-7%	-0.3%	7%	-14%	0%	4%	-3%[46.1 µM]
Clc1ccc(C2=NN=C3COc4ccccc4N3C2)cc1	34%[activator]	2%	-6.6%	-14%	-17%	16%	-7%	13%
CCOC(=O)C1=C(C)NC2=C(C(=O)c3ccccc32)C1c1cccc2ccccc12 (configuration not stated)	-29%	?	/	-1%	-4%	-81%	/	?
COc1cccc(CNC(=O)CCCC(=O)NC(C)CCc2ccccc2)c1 (configuration not stated)	-4%	/	/	2%	6%	4%	/	/
COc1ccccc1N1CCN(C(=O)C(NS(=O)(=O)c2cccs2)c2ccccc2)CC1 (configuration not stated)	-9%	-8%	-0.1%	-1%	2%	12%	-13%	?
Cc1noc(NS(=O)(=O)c2ccc(NC(=O)CCN3C(=O)c4ccccc4C3=O)cc2)c1C	-5%	12%	/	0%	6%	-4%	/	-1%[46.1 µM]
CC(=O)N1CCc2cc(Br)cc(S(=O)(=O)N3CCN(c4cccc(C(F)(F)F)c4)CC3)c21	0%	?	3.3%	/	/	/	6%	12%[46.1 µM]
O=C(CCNC(=O)N1CC(=O)Nc2ccccc21)Nc1ccc(F)c(Cl)c1	-16%	/	/	2%	-10%	5%	/	/
O=C(O)CCCNC(=O)c1cncc(Br)c1	6%	-2%	2.8%	-2%	-15%	-4%	-6%	22%
Cc1nonc1NC(=O)c1oc2ccccc2c1C	22%	/	/	0%	1%	-10%	/	/

Single entries from above.
Value of Cc1noc(NS(=O)(=O)c2ccc(NC(=O)CCN3C(=O)c4ccccc4C3=O)cc2)c1C in RE007 growth inh: 6%
Value of COc1cccc(CNC(=O)CCCC(=O)NC(C)CCc2ccccc2)c1 (configuration not stated) in SARS PLpro yeast: 2%
